Screening data as filed in PubChem BioAssay.
CtBP-E1A inh – qHTS Assay for Inhibitors of the CtBP/E1A Interaction | CtBP / adenovirus E1A interaction (AlphaScreen) | AlphaScreen GST-E1A/His-CtBP binding, 1536-well; active compounds read low; control for the full effect not named in the record | activity change, % (test concentration not listed) | hit rate 0.49% among 340,000; in the data active means activity change below about -65%; inconclusive means about -30% to -65%; inactive means above about -30%; further: on the % scale 0 is the no-effect control and ±100 the full control effect
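GST-E1A and His-tagged CtBP (125 nM each as 5X stock) were preincubated with pin-transferred compound for 2 h at 37 °C in the dark, then glutathione donor and nickel acceptor beads were added for 1 h before AlphaScreen reading.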
Six1-Eya2 inh – qHTS Assay for Inhibitors of the Six1/Eya2 Interaction; AlphaScreen GST-Six1/His-Eya2 binding, biochemical; active compounds read low; control for the full effect not named in the record; AID 651725, 2012; hit rate 0.56% among 360,000; Homeobox protein SIX1 (Homo sapiens) + Protein phosphatase EYA2 (Homo sapiens), …; activity change, % (concentration not given with the values); in the data active = activity change below about -65%; inconclusive = about -30% to -65%; inactive = above about -30%; further: on the % scale 0 is the no-effect control and ±100 the full control effect
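Six1/Eya2 binding was read as AlphaScreen signal after compounds were pinned into GST-Six1 plus His-tagged Eya2 (5X stock 250/500 nM) in pH 8.0 Tris/NaCl/TCEP buffer, beads added, then incubated 1 h, 37 C, dark.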
gsp antagonist – qHTS for Antagonists of gsp, the Etiologic Mutation Responsible for Fibrous Dysplasia/McCune-Albright Syndrome: qHTS; gsp-mutant cells, cAMP HTRF, 30 min; control for the full effect not named in the record; Potency, µM (top dose mostly 76.9 µM), for the others: top-dose activity change, negative = inhibition, usual class: inhibitors; hit rate 0.4% among 340,000; active = falling curve of any shape with a large fitted effect; inconclusive = falling curve, mostly with a smaller effect; inactive = flat or rising curve; cell line not stated here;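 further: intracellular cAMP measured with PDE inhibitor Ro 20-1724 present during compound exposure; potency means the concentration at half of the fitted maximal effect; on the % scale 0 is the no-effect control and ±100 the full control effect; nearly all actives have a fitted effect of over 65% in size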
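HTRF cAMP read-out (cAMP-d2 plus anti-cAMP antibody-K in lysis buffer, 30 min RT). Before lysis, cells are exposed to compounds with […] for 30 min at 37C in DPBS containing Ca/Mg, BSA and Tween 20.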
D2 PAM – Beta-Arrestin HTS for Positive Allosteric Modulators of the Human D2 Dopamine Receptor: Potentiators; hit rate 0.23% among 360,000; potentiation, % (concentration not given with the values); D(2) dopamine receptor (Homo sapiens), P14416; DiscoveRx D2 beta-arrestin cells, luminescence, 90 min; 100% = 57 uM dopamine signal; active = potentiation of 50% or more; inconclusive = 30% to 50%; inactive = 30% or less;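 further: compound concentration not given in the record; tested on top of an EC20 dose of dopamine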
Target sequence (P14416 whole entry, looked up): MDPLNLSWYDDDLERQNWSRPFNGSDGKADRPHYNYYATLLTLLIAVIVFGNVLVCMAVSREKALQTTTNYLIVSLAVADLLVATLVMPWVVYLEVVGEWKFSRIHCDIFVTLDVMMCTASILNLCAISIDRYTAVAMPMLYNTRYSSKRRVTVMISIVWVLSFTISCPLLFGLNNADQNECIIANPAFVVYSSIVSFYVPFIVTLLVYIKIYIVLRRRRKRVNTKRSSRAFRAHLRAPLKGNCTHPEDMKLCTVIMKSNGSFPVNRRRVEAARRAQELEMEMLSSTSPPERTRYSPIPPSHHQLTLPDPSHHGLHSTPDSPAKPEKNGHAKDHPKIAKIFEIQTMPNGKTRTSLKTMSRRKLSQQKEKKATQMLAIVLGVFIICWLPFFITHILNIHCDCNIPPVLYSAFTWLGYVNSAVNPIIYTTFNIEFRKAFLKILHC
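D2 cells co-treated with compound plus 50 nM dopamine (EC20) for 90 min at 37 deg C to detect potentiation. Beta-arrestin recruitment was read as enzyme-fragment luminescence after 1 h at ambient temperature. Full response was set by 57 uM dopamine.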
D2 ag – Beta-Arrestin HTS for Positive Allosteric Modulators of the Human D2 Dopamine Receptor: Agonists. D(2) dopamine receptor (Homo sapiens), P14416. DiscoveRx PathHunter D2 beta-arrestin, luminescence, 90 min; 100% = 57 uM dopamine signal. activation, % (no concentration beside the values). hit rate 0.084% among 360,000. AID 624465, 2012; in the data active = activation above about 40%; inconclusive = about 15% to 40%; inactive = below about 15%; further: compound concentration not given in the record; the text of the record calls up to 30% inactive
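DiscoveRx PathHunter D2 beta-arrestin cells (2,100/well) attached overnight, then compound-stimulated 90 min at 37 C in HBSS/10 mM HEPES/0.1% Tween-20 buffer; beta-galactosidase complementation read by luminescence after 1 h at ambient temperature. Dopamine 57 uM final (EC100) as control.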
gsp agonist – qHTS for Agonist of gsp, the Etiologic Mutation Responsible for Fibrous Dysplasia/McCune-Albright Syndrome: qHTS. gsp mutant cells, cAMP HTRF, 30 min; control for the full effect not named in the record. Potency, µM (top dose mostly 76.9 µM), for inactives: top-dose activation (cAMP increase), hits mostly activators. hit rate 0.13% among 340,000. AID 624287, 2012; active = well fitted activation curve with a large enough effect; inconclusive = small, poorly fitted or top-dose-only effect, or another doubt; inactive = no such curve, though single readings can be large or run the other way; cell line not stated here;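 further: phosphodiesterase inhibitor Ro 20-1724 added with compounds to block cAMP breakdown; potency means the concentration at half of the fitted maximal effect; nearly all actives have a fitted effect of over 60% in size; about a fifth of the inactives were tested at one dose only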
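Cells stably selected in G418 were plated at 2000/well, grown 16-24 hr, then given compounds in DMSO with the PDE inhibitor […] (300 uM solution added) for 30 min at 37C; cAMP was read by HTRF.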
* marks the source's active call; other numbers are inactive results; [ ] = another dose, or the depositor's remark. Compounds as they come; about 1.4% have a hit in one of these screens.

What do the screens show for `COc1cc(NC(=S)N2CCN(c3ccccn3)CC2)cc(OC)c1`?
CtBP-E1A inh: 3; Six1-Eya2 inh: -3; gsp antagonist: -4%; D2 PAM: -18; D2 ag: 0.2; gsp agonist: 0%

How did O=C(CNC(=O)Cc1ccccc1)N=Nc1c(O)[nH]c2ccccc12 do in these assays?
CtBP-E1A inh: -2; Six1-Eya2 inh: -2; gsp antagonist: inconclusive; D2 PAM: -6; D2 ag: 1.8; gsp agonist: -3%[15.4 µM]

Results for Oc1ccc(Cl)cc1CNc1ccccn1 ?
CtBP-E1A inh: 0; Six1-Eya2 inh: 1; gsp antagonist: 7%; D2 PAM: -2; D2 ag: 8.8; gsp agonist: -43%

Results for Cc1ccc(NC(=O)Cn2cc(S(=O)(=O)c3ccc(C)cc3)c(=O)c3cc(F)ccc32)cc1 ?
CtBP-E1A inh: -1; Six1-Eya2 inh: 1; gsp antagonist: 19%; D2 PAM: -8; D2 ag: -3.2; gsp agonist: -14%

How did C/C(=N/NC(=O)CNC(=O)Cc1ccccc1)c1ccc(Cl)cc1 do in these assays?
CtBP-E1A inh: 2; Six1-Eya2 inh: 6; gsp antagonist: -8%; D2 PAM: -1; D2 ag: 4.2; gsp agonist: -1%

What do the screens show for `COc1ccc(C(=O)NNC(=S)NC(=O)c2ccc(Br)o2)cc1OC`?
CtBP-E1A inh: 0; Six1-Eya2 inh: 2; gsp antagonist: -16%; D2 PAM: 2; D2 ag: 0.8; gsp agonist: -8%[15.4 µM]

What do the screens show for `CSc1ccccc1C(=O)NC1CCCCCC1`?
CtBP-E1A inh: 9; Six1-Eya2 inh: 2; gsp antagonist: -8%; D2 PAM: -4; D2 ag: -4.9; gsp agonist: -4%

Results for O=C(NN=c1c(=O)c2ccccc2c1=O)c1ccccc1 ?
CtBP-E1A inh: 6; Six1-Eya2 inh: -3; gsp antagonist: 6%; D2 PAM: -23; D2 ag: -6.0; gsp agonist: 7%

How did COc1cccc([C@@H]2Oc3ccc(Br)cc3C(=O)[C@H]2OC(=O)NC2CCCC2)c1 do in these assays?
CtBP-E1A inh: -2; Six1-Eya2 inh: -8; gsp antagonist: -13%; D2 PAM: -6; D2 ag: -2.5

Results for CCn1c(-c2cccs2)nc2ccccc21 ?
CtBP-E1A inh: 2; Six1-Eya2 inh: -6; gsp antagonist: 16%; D2 PAM: -20; D2 ag: -0.7; gsp agonist: 0%

How did O=C(CSc1nnc(-c2ccco2)o1)Nc1c(F)cccc1F do in these assays?
Six1-Eya2 inh: 6; gsp antagonist: 7%; D2 PAM: 0; D2 ag: -2.7; gsp agonist: 21%

Results for Nc1nnc2cc(Br)ccc2n1 ?
CtBP-E1A inh: 0; Six1-Eya2 inh: -8; D2 PAM: -9; D2 ag: -2.4; gsp agonist: -51%[inhibitor]

What do the screens show for `COCCCNC(=O)Cn1c(=O)oc2cc(S(=O)(=O)N3CC(C)CC(C)C3)ccc21` (centres undefined)?
CtBP-E1A inh: 0; Six1-Eya2 inh: 7; gsp antagonist: 8%; D2 PAM: -5; D2 ag: -1.4; gsp agonist: -14%

Results for COc1ccccc1CNC(=O)[C@H](C)NC(=O)C1CCN(C(=O)[C@@H](N)CC(C)C)CC1 ?
CtBP-E1A inh: 4; Six1-Eya2 inh: 2; gsp antagonist: 8%; D2 PAM: 0; D2 ag: 0.0; gsp agonist: -51%[inhibitor]

How did C/C(N)=C(/C#N)C(=O)COC(=O)c1ccccc1C(=O)c1ccc(C)cc1 do in these assays?
CtBP-E1A inh: 0; Six1-Eya2 inh: 25; gsp antagonist: -48%; D2 PAM: 10; D2 ag: -6.3; gsp agonist: -7%[15.4 µM]

What do the screens show for `CC(C)(O)C#Cc1ccc(CN2CCN(Cc3ccsc3)C(CCO)C2)cc1` (centres undefined)?
CtBP-E1A inh: 3; Six1-Eya2 inh: 6; gsp antagonist: 9%; D2 PAM: -16; D2 ag: -1.1; gsp agonist: -9%

What do the screens show for `Cc1ccc(C(=O)Oc2coc(CSc3nnc(NC(=O)C4CC4)s3)cc2=O)cc1`?
CtBP-E1A inh: 3; Six1-Eya2 inh: -4; gsp antagonist: -15%; D2 PAM: 2; D2 ag: -0.2; gsp agonist: -59%[inhibitor]

What do the screens show for `Cn1c(=O)c2c(nc(SCCN3CCOCC3)n2C)n(C)c1=O`?
Six1-Eya2 inh: -6; gsp antagonist: 3%; D2 PAM: -16; D2 ag: -0.5; gsp agonist: 8.9µM*

What do the screens show for `O=C(Cc1c(Cl)cccc1Cl)OCC(=O)N1CCN(C(=O)c2ccco2)CC1`?
CtBP-E1A inh: 5; Six1-Eya2 inh: -2; gsp antagonist: -1%; D2 PAM: -4; D2 ag: 1.9; gsp agonist: 2%

Results for CC(Oc1ccc2c3c(c(=O)oc2c1)CCCC3)C(=O)NCCCn1ccnc1 (centres undefined) ?
CtBP-E1A inh: 0; Six1-Eya2 inh: -1; gsp antagonist: -15%; D2 PAM: -2; D2 ag: -2.3; gsp agonist: inconclusive

How did COCc1cccc(-c2csc(C(O)c3cccc(OC)c3)n2)c1 (centres undefined) do in these assays?
CtBP-E1A inh: 3; Six1-Eya2 inh: -19; D2 PAM: 6; D2 ag: 3.1

Results for COc1ccc(-c2coc3c(C(=O)Nc4cccc(NS(C)(=O)=O)c4)cccc23)c(C)c1 ?
CtBP-E1A inh: -18; Six1-Eya2 inh: -15; D2 PAM: -3; D2 ag: -2.1

What do the screens show for `CN(C1=NC(=O)C(CC(=O)Nc2ccc(Br)cc2)S1)c1ccc(O)cc1` (centres undefined)?
CtBP-E1A inh: 15; Six1-Eya2 inh: -2; gsp antagonist: 5%; D2 PAM: -24; D2 ag: -0.2; gsp agonist: 3%

Results for COc1ccccc1CNS(=O)(=O)c1cc(C(=O)NCc2ccccn2)c(Cl)cc1Cl ?
CtBP-E1A inh: -13; Six1-Eya2 inh: 6; gsp antagonist: -3%; D2 PAM: 0; D2 ag: -2.0; gsp agonist: -1%[15.4 µM]

Results for CCN(CC)C(=O)c1sc2c(c1C)c(=O)n(-c1ccc(C)c(C)c1)c(=O)n2CC(=O)NCC1CCCO1 (centres undefined) ?
CtBP-E1A inh: 0; Six1-Eya2 inh: 0; gsp antagonist: -3%; D2 PAM: -14; D2 ag: -4.0; gsp agonist: 6%[15.4 µM]

Results for O=C(NCCc1ccccc1)C1CCN(C(=O)Nc2ccccc2)CC1 ?
CtBP-E1A inh: 8; Six1-Eya2 inh: 1; gsp antagonist: 5%; D2 PAM: -7; D2 ag: -2.0; gsp agonist: -2%[15.4 µM]

Results for Cc1cccc(C(O)c2ncc(-c3ccc(F)cc3)[nH]2)c1C (centres undefined) ?
CtBP-E1A inh: -8; Six1-Eya2 inh: -8; D2 PAM: -17; D2 ag: -4.4

How did CCOC(=O)c1c(O)c(Cl)c(C)[nH]c1=O do in these assays?
CtBP-E1A inh: 6; Six1-Eya2 inh: -1; gsp antagonist: 22%; D2 PAM: 1; D2 ag: -1.5; gsp agonist: -3%[15.4 µM]

Results for COc1ccc2nc(SCC(=O)NCc3ccc(OC)c(OC)c3)[nH]c2c1 ?
CtBP-E1A inh: 0; Six1-Eya2 inh: -10; gsp antagonist: 11%; D2 PAM: -8; D2 ag: -8.7; gsp agonist: -2%[15.4 µM]

Results for Cc1ccc(F)cc1C(=O)N1CCCC(C)(C(=O)NS(=O)(=O)C2CC2)C1 (centres undefined) ?
CtBP-E1A inh: 8; Six1-Eya2 inh: 4; D2 PAM: -1; D2 ag: -3.4

What do the screens show for `CC(=O)Nc1ccc(-c2csc(-c3cccnc3)n2)cc1`?
CtBP-E1A inh: -5; Six1-Eya2 inh: -5; gsp antagonist: -1%; D2 PAM: -19; D2 ag: -2.2; gsp agonist: inconclusive

How did NC(CSC1(c2ccccc2)c2ccccc2-c2ccccc21)C(=O)O (centres undefined) do in these assays?
CtBP-E1A inh: -20; Six1-Eya2 inh: -4; gsp antagonist: -7%; D2 PAM: 1; D2 ag: 3.9; gsp agonist: 2%

What do the screens show for `CN(C)CCCn1c(-c2ccccc2)nc(=S)c2c1CCCC2`?
CtBP-E1A inh: -5; Six1-Eya2 inh: 0; gsp antagonist: 1%; D2 PAM: -13; D2 ag: -3.8; gsp agonist: -47%[inhibitor]

What do the screens show for `Fc1ccc(Oc2cnns2)cc1`?
CtBP-E1A inh: 13; Six1-Eya2 inh: 4; gsp antagonist: 9%; D2 PAM: 9; D2 ag: 2.7; gsp agonist: 10%

What do the screens show for `Cc1cc(C)nc(SCC(=O)N/N=C/c2cccnc2)n1`?
CtBP-E1A inh: 0; Six1-Eya2 inh: 6; gsp antagonist: 4%; D2 PAM: -3; D2 ag: -3.5; gsp agonist: 3%

Results for CCN(CC)c1ccc(/C=N/Nc2ccc(C)cc2)c(O)c1 ?
CtBP-E1A inh: inconclusive; Six1-Eya2 inh: inconclusive; gsp antagonist: 10%; D2 PAM: inconclusive; D2 ag: 13; gsp agonist: -25%

Results for O=C(N1CCN(Cc2ccccc2)CC1)C12CC3CC(CC(C3)C1)C2 ?
CtBP-E1A inh: -6; Six1-Eya2 inh: -8; gsp antagonist: -6%; D2 PAM: -24; D2 ag: -2.8; gsp agonist: inconclusive

How did Cc1ccc(S(=O)(=O)N2CCN(c3ccc(C(=O)N4CCOCC4)cc3[N+](=O)[O-])CC2)cc1 do in these assays?
CtBP-E1A inh: -14; Six1-Eya2 inh: 5; gsp antagonist: -19%; D2 PAM: -5; D2 ag: 1.2; gsp agonist: -9%

How did Cc1ccc(-n2c(SCC(=O)Nc3cccc(S(=O)(=O)NC4=NCCCCC4)c3)nc3ccccc3c2=O)cc1C do in these assays?
CtBP-E1A inh: 1; Six1-Eya2 inh: -1; gsp antagonist: -6%; D2 PAM: -15; D2 ag: 0.4; gsp agonist: inconclusive

What do the screens show for `O=C(CCS(=O)(=O)c1ccc(Cl)cc1)N1CCN(c2ccccc2F)CC1`?
CtBP-E1A inh: -18; Six1-Eya2 inh: 8; gsp antagonist: -16%; D2 PAM: -14; D2 ag: -0.2; gsp agonist: 13%

Looked up one by one from the list above (2):
What do the screens show for `O=C(CCS(=O)(=O)c1ccc(Cl)cc1)N1CCN(c2ccccc2F)CC1`?
CtBP-E1A inh: -18; Six1-Eya2 inh: 8; gsp antagonist: -16%; D2 PAM: -14; D2 ag: -0.2; gsp agonist: 13%

Results for O=C(N1CCN(Cc2ccccc2)CC1)C12CC3CC(CC(C3)C1)C2 ?
CtBP-E1A inh: -6; Six1-Eya2 inh: -8; gsp antagonist: -6%; D2 PAM: -24; D2 ag: -2.8; gsp agonist: inconclusive
